Mtb growth – Mycobacterium tuberculosis H37Rv growth inhibition, cell based, confirmatory dose response (AID 1949). most inactive calls were filed without a number and no value below 0 was filed. inhibition, % at 10 µg/mL; hits with a dose series show IC50 in µg/mL. M. tuberculosis H37Rv growth inhibition. actives 1.6% (n = 100,000);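 active = confirmed in a dose series; inconclusive = about 50% or more but not retested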;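 note: bacteria grown 7 days with compound before Alamar blue readout; 0% = untreated bacteria and 100% = reference antibiotic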
* = called active by the depositor; i = inactive; ? = inconclusive.

SMILES	Mtb growth
O=C(NCCCn1ccnc1)c1sc2cc([N+](=O)[O-])ccc2c1Cl	i
N#C/C(=C\c1ccc(OCC(=O)N2CCOCC2)cc1)C(N)=S	i
CCCc1nc2ccccc2c(=O)n1-c1c(C)n(C)n(-c2ccccc2)c1=O	i
O=C(NNC(=S)NC1CCCCC1)Nc1cccc(Cl)c1Cl	i
CCn1c(SCC(=O)Nc2cc(OC)ccc2OC)nnc1-c1ccc(N)cc1	i
O=C(CCc1nnc(NC(=O)c2ccc(Cl)c(Cl)c2)s1)c1ccccc1	i
CC(C)C(=O)Nc1cccc(NC(=S)NC(=O)c2cccc(I)c2)c1	i
O=C(O)COc1c(-c2ccccc2)oc2ccccc2c1=O	i
CCC(CC)NCc1cc(OC)c(OC)c(OC)c1	i
Cc1cc(Cl)c(OCCOCCN2CCCCC2)c(Br)c1	i
Cc1ccc(C(C)C)cc1OCCCN1CCNCC1	i
COc1cccc(Oc2c(C)oc3cc(OC(=O)N(C)C)ccc3c2=O)c1	i

Continued; it opens with the 12 that closed the last part.
SMILES	Mtb growth
O=C(NCCCn1ccnc1)c1sc2cc([N+](=O)[O-])ccc2c1Cl	i
N#C/C(=C\c1ccc(OCC(=O)N2CCOCC2)cc1)C(N)=S	i
CCCc1nc2ccccc2c(=O)n1-c1c(C)n(C)n(-c2ccccc2)c1=O	i
O=C(NNC(=S)NC1CCCCC1)Nc1cccc(Cl)c1Cl	i
CCn1c(SCC(=O)Nc2cc(OC)ccc2OC)nnc1-c1ccc(N)cc1	i
O=C(CCc1nnc(NC(=O)c2ccc(Cl)c(Cl)c2)s1)c1ccccc1	i
CC(C)C(=O)Nc1cccc(NC(=S)NC(=O)c2cccc(I)c2)c1	i
O=C(O)COc1c(-c2ccccc2)oc2ccccc2c1=O	i
CCC(CC)NCc1cc(OC)c(OC)c(OC)c1	i
Cc1cc(Cl)c(OCCOCCN2CCCCC2)c(Br)c1	i
Cc1ccc(C(C)C)cc1OCCCN1CCNCC1	i
COc1cccc(Oc2c(C)oc3cc(OC(=O)N(C)C)ccc3c2=O)c1	i
O=C(CNS(=O)(=O)c1ccc(Cl)cc1)Nc1ccc(Br)cc1	i
COC(=O)C1(C(O)c2ccc(Cl)cc2)CCCCC1 (stereo not given)	i
Cc1cccc(C(=O)NC(=S)Nc2ccc([N+](=O)[O-])cc2O)c1	0.19µg/mL*
COc1ccc(C(=O)COC(=O)CCN2C(=O)C3C4CCC(C4)C3C2=O)cc1 (stereo not given)	i
Cc1c(C=O)c2ccccc2n1CC(=O)Nc1ccc(F)cc1	i
CC(C)C(=O)Nc1ccc2c(c1)C(=O)NC2=O	i
CC1CCc2cc(F)ccc2N1C(=O)C1(C)CC1(Cl)Cl (stereo not given)	i
COc1ccc(C(=O)NC(=S)Nc2cc(C(=O)O)ccc2C)cc1	1%
Cc1ccc(Cl)cc1-c1ccc(C=O)o1	5%
COC(=O)c1ccccc1NC(=O)N1CCN(S(=O)(=O)c2ccc(Cl)cc2)CC1	i
c1ccc(C[n+]2ccc(-c3nc4ccccc4[nH]3)cc2)cc1	i
CCC(=O)N1CCN(c2ccc(C(C)=O)cc2F)CC1C (stereo not given)	i
O=C(Nc1ccccc1N1CCCC1)c1cccc(OCc2ccccc2)c1	i
CC(NC(=O)c1ccccc1)c1nnc(SCC(=O)Nc2ccccc2F)n1C (stereo not given)	i
Cc1ccc(S(=O)(=O)N2C(=O)CCC2c2nc(-c3ccccc3)no2)cc1 (stereo not given)	i
CCOC(=O)C1CCN(S(C)(=O)=O)CC1	i
CCOC(=O)c1ccc(Nc2nc3nonc3nc2NC(C)C)cc1	30%
CCOC(=O)C1CCN(Cc2nc(-c3ccc(OC)c(OC)c3)no2)CC1	i
CCC(C)c1ccccc1OCCCCN1CCN(C)CC1 (stereo not given)	3%
CCC(C(=O)Nc1ncn[nH]1)c1ccccc1 (stereo not given)	i
COC(=O)c1ccccc1NC(=O)CSc1nc2ccc(C)cc2[nH]1	i
CCOc1ccc2c(=O)c(-c3ccc(OC)c(OC)c3)c(C)oc2c1	1%
Cc1cc(OCc2cccc3ccccc23)c2c(C)cc(=O)oc2c1	7%
O=c1[nH]c(/C=C\c2ccc(Cl)cc2)c([N+](=O)[O-])c(=O)[nH]1	14%
CCCN1C(=O)C(NC(=O)c2ccncc2)(C(F)(F)F)C2=C1CC(C)(C)CC2=O (stereo not given)	i
COC(=O)c1cccc(Nc2cc(C)nc3ccc(OC)cc23)c1	i
OCCNC(=S)Nc1ccccc1Cl	i
C=CCc1cc(C)ccc1OCCCN1CCCC1	i
COc1cccc(CN2CCN(C(=S)Nc3ccccc3C(F)(F)F)CC2)c1	i
O=C(Nc1ccccc1-c1ccccc1)c1ccc(Br)o1	i
Cc1cc(C)n(C(=O)COc2ccc(-c3ccccc3)cc2)n1	i
COc1cc(CNC2CCCc3ccccc32)cc(OC)c1 (stereo not given)	i
O=C(c1ccccc1)c1ccc(OCC(O)CN2CCN(c3ccccc3)CC2)cc1 (stereo not given)	17%
CC(=O)N(C)c1ccc(NC(=S)NCC(C)C)cc1	i
Cc1c(C=O)c2ccccc2n1CC(=O)N1CCCC1	i
Cn1cnc2c1c(=O)n(Cc1ccc(F)cc1Cl)c(=O)n2C	4%
O=C(Nc1cccc(-c2cnc3ccccc3n2)c1)c1cccc(NC(=O)c2ccco2)c1	i
COc1cc(Nc2ccnc3cc(Cl)ccc23)c(C(=O)O)cc1OC	1%
CN(C)C(=O)NCc1ccc(S(N)(=O)=O)cc1	i
Cc1nn(C(C)(C)C)c(OC(=O)c2ccco2)c1Sc1ccccc1	4%
CCn1c(CC(=O)Nc2ccc(C)cc2)nnc1SCC(=O)Nc1ccc(Br)cc1C(C)C	i
N#Cc1ccc(NC(=O)NC2CCCCC2)cc1	i
COc1cc2c(cc1NC(=O)CN(C)S(=O)(=O)c1ccc(C)cc1)oc1ccccc12	i
Cc1ccc(NC(=S)N2CCN(C/C=C/c3ccccc3)CC2)c(C)c1	2%
c1ccc2[nH]c(Cc3nc4ccccc4[nH]3)nc2c1	?
CCC(C)c1ccc(NC(=S)Nc2cccc(C(C)=O)c2)cc1 (stereo not given)	i
CCc1c(C)sc(NC(=O)c2cc(-c3ccc(Cl)s3)nc3ccccc23)c1C(N)=O	38%
CCOc1ccccc1N1CCN(Cc2cccc(C(F)(F)F)c2)CC1	4%

Copied from the results shown for reference:
SMILES	Mtb growth
CN(C)C(=O)NCc1ccc(S(N)(=O)=O)cc1	i
Cc1nn(C(C)(C)C)c(OC(=O)c2ccco2)c1Sc1ccccc1	4%
CCn1c(CC(=O)Nc2ccc(C)cc2)nnc1SCC(=O)Nc1ccc(Br)cc1C(C)C	i
N#Cc1ccc(NC(=O)NC2CCCCC2)cc1	i
COc1cc2c(cc1NC(=O)CN(C)S(=O)(=O)c1ccc(C)cc1)oc1ccccc12	i

Later entries
SMILES	Mtb growth
COCCNC(=O)CN(c1ccccc1)S(=O)(=O)c1cc(C)ccc1OC	3%
CC(NC(=O)CN(c1cc(C(F)(F)F)ccc1Cl)S(C)(=O)=O)c1ccccc1 (stereo not given)	i
CCOC(=O)C(Cc1ccccc1Cl)(NC(C)=O)C(=O)OCC	i
CCOC(=O)c1c(NC(=O)c2cc3ccccc3oc2=O)sc2c1CCC2	i
CSc1ccccc1NC(=O)c1ccncc1	i
Cc1ccccc1C(=O)NC(c1ccccc1)c1ccccc1	i
CCc1ccccc1NC(=O)CN(C)S(=O)(=O)c1ccc(Br)cc1	i
O=C(CSc1nc2ccccc2[nH]1)n1c2c(c3ccccc31)CCCC2	i
CC(=O)Oc1ccc(-c2nc(-c3ccccn3)no2)cc1	12%
O=C1c2cc(Cl)c(Cl)cc2C(=O)N1Cc1ccccc1	i
Cc1ccc(NC(=O)c2ccc(CN3CCOCC3)cc2)c(C)c1	i
Cc1cc(OCC(=O)Nc2cccc(C#N)c2)cc(C)c1Br	0%
CCc1cccc(NC(=O)C2CCCC2)c1	i
Cn1cc(NC(=O)Nc2ccccc2C(F)(F)F)c(C(N)=O)n1	i
CCc1c(C)sc(NC(=S)NNC(=O)Cc2cccs2)c1C(=O)OC	i
COc1cc(Br)c(/C=C/c2ccc3ccccc3n2)cc1OC	11%
COc1ccc(-c2nn(-c3ccccc3)cc2CO)cc1OC	i
Cc1ccc(Nc2nc(N3CCOCC3)nc(N3CCOCC3)n2)cc1	2%
Nc1sc2c(c1C(=O)Nc1ccccc1Cl)CCC2	2%
Cc1cc(S(=O)(=O)NCc2ccncc2)c(C)cc1Br	i
COc1cc([N+](=O)[O-])ccc1NC(=S)NC(=O)CC12CC3CC(CC(C3)C1)C2	4%
COC(=O)C1=C(C)N=C2SCC(=O)N2C1c1ccc(OC)c(OC)c1 (stereo not given)	i
CN1CCN(c2ccc(C#N)cc2F)CC1	i
CN(C)CCCN1C(=O)C(O)=C(C(=O)c2ccco2)C1c1cccc(Br)c1 (stereo not given)	i
Cc1c(NC(=O)Nc2cccc(C(F)(F)F)c2)cccc1[N+](=O)[O-]	2.9µg/mL*
COc1ccccc1CC(=O)Nc1cccc(I)c1	i
CC(C)(C)SCCNC(=S)Nc1ccccc1	i
O=C(C1=C(O)C(=O)N(Cc2cccnc2)C1c1ccccn1)c1cccs1 (stereo not given)	i
O=C(NCCCN1CCOCC1)C1c2ccccc2Oc2ccccc21	i
O=C(NCCO)C12CC3CCC(CC(C3)C1)C2	i
CCOc1ccc(C(=O)Nc2ccccc2I)cc1	i
O=C(CSc1nc2ccccc2n1CCc1ccccc1)N1CCOCC1	i
Cc1c(N=C2NC(=O)C(CC(=O)Nc3ccc(Cl)cc3)S2)c(=O)n(-c2ccccc2)n1C (stereo not given)	i
O=C1c2ccccc2C(=O)N1CCCc1nc2ccccc2c(=O)n1-c1cccc(C(F)(F)F)c1	i
Cc1ccccc1C(=O)Nc1cccc(NC(=S)NC(=O)c2ccc([N+](=O)[O-])cc2)c1	i
Cc1c(NC(=O)N2CCCC2)c(=O)n(-c2ccccc2)n1C	i
O=C(NNC(=S)NCc1ccc(F)cc1)c1cc(Br)ccc1O	i
CCOc1cc(C(=O)Nc2ccc(C(=O)OC(C)C)cc2)cc(OCC)c1OCC	0%
Cn1nnc2cc(NC(=O)Nc3ccc(Br)cc3)ccc21	i
O=C(CN1C(=O)c2cccc3cccc(c23)C1=O)N1CCC(Cc2ccccc2)CC1	i
Cc1cccc(C(=O)Nc2ccc(Cl)cc2F)c1	i
CCOc1cc(C(=O)Nc2cc(C)on2)cc(OCC)c1OCC	i
Cn1cnnc1SC1CCCCC1NS(=O)(=O)c1ccccc1 (stereo not given)	i
Cc1cc(C)c2nc(C(F)(F)F)nc(N3CCN(CCO)CC3)c2c1	15%
O=C(N1CCCC1)C12CC3CC(C1)CC(c1ccccc1)(C3)C2	2%
Cc1nnc(NC(=O)CSc2nnnn2-c2ccc3c(c2)OCO3)s1	i
N#Cc1ccc(N2CCN(C(=O)c3ccc(F)cc3)CC2)c(F)c1	i
CCOC(=O)c1ccccc1NC(=O)C1CCCO1 (stereo not given)	i
CCC(=O)NC(=S)Nc1cc(OC)ccc1OC	3%
COC(=O)C1=C(C)Nc2ncnn2C1c1ccc(OC)c(Br)c1 (stereo not given)	i
Cc1ccc(S(=O)(=O)N(CC(=O)Nc2cccc(F)c2)c2ccc(F)cc2)cc1	i
c1nc(Nc2ccc(N3CCOCC3)cc2)c2c3c(sc2n1)CCCC3	i
O=S(=O)(Nc1ccc(O)cc1)c1cccc2ccccc12	i
O=C(Nc1ccc(Cl)cc1F)C1c2ccccc2Oc2ccccc21	i
O=C(CC(O)(C(F)(F)F)C(F)(F)F)Nc1ccn(Cc2ccccc2F)n1	i
CCOC(=O)c1ccc(CSc2nc3ccccc3c(=O)[nH]2)cc1	i
O=C(CC1C(=O)N(c2ccccc2)C(=O)N1Cc1cccs1)Nc1ccccc1 (stereo not given)	i
COc1ccc(CCNc2cc(N3CCN(C(=O)c4ccccc4OC)CC3)ccc2[N+](=O)[O-])cc1OC	i
COc1ccc(S(=O)(=O)Nc2ccncc2)c(C)c1C	i
Cc1ccccc1NC(=O)CSc1ccccc1N	i

(further entries)
SMILES	Mtb growth
NC(=S)N/N=C/c1ccc(-c2ccc(Cl)c(C(=O)O)c2)o1	i
O=C(NCC1CCCO1)c1cccc(S(=O)(=O)N2CCOCC2)c1 (stereo not given)	i
O=C(Nc1nc2ccccc2[nH]1)c1ccncc1	15%
COc1cc(NC(=S)NC(=O)c2ccco2)ccc1NC(=O)C(C)C	i
Cc1cc(Cl)ccc1N(CC(=O)Nc1cccc(Br)c1)S(C)(=O)=O	27%
COc1ccc(-c2coc3c(C)c4oc(=O)c5c(c4cc23)CCC5)cc1F	i
CCOC(=O)CCc1c(C)c2ccc(OCC(=O)c3ccccc3)c(C)c2oc1=O	i
Cc1cc(C)n(CCOc2ccc(Cl)cc2Cl)n1	i
COc1ccc(OC)c(S(=O)(=O)N2C(C)CCCC2C)c1 (stereo not given)	i
NC(=O)COc1cc(Cl)c(Cl)cc1Cl	i
CCC(=O)Nc1nnc(COc2ccc(OC)cc2)s1	i
CC(C)(C)c1ccccc1OCC(=O)Nc1ccc(S(=O)(=O)Nc2ccccn2)cc1	i
Cc1ccc2cccc(S(=O)(=O)N3CCCc4ccccc43)c2n1	6%
CCC(=O)NC(c1ccc(C(C)C)cc1)c1c(O)ccc2ccccc12 (stereo not given)	i
O=C(COc1ccc2ccccc2c1Br)NCCCc1ccccc1	i
O=C1CC(N2CCN(C/C=C/c3ccccc3)CC2)C(=O)N1c1ccc(C(F)(F)F)cc1 (stereo not given)	i
COc1ccc(-c2cc(C(F)(F)F)c3c(n2)sc2c(O)cc(=O)[nH]c23)cc1	i
O=C(Nc1cccc(Cl)c1)NC1CCCC1	i
Cn1c(SCC(=O)Nc2ccc3ccccc3c2)nnc1-c1cc2ccccc2o1	i
CCCCCC(=O)NC(=S)Nc1ccc2oc(=O)ccc2c1	?
Cc1ccc(S(=O)(=O)CC(c2ccccc2)N2CCCC2)cc1 (stereo not given)	i

Screening results: PubChem BioAssay, Southern Research Institute

The list is partial (hit frequency here may not be typical).
